# TRPML1 ag: agonists of human TRPML1 channel | Q9GZU1 | TRPML1-expressing cells, Ca2+ dye fluorescence, FDSS; host cell line not named in the record; reference of the full effect not given here | activation, % (no concentration beside the values) | actives 0.12% (n = 410,000) | AID 624414; in the data active = activation above about 50%; inconclusive = about 30% to 50%; inactive = below about 30%; note: 0% is about no effect; the text of the record puts the active cut at 80%
#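 Kinetic FDSS Ca2+ read in Tet-induced TRPML1-DL cells (ABD Ca8 dye plus quencher, 45-90 min RT loading): baseline, then compound, then 110 s agonist window; EC80 agonist 54-4 at 4uM final added afterwards for a 110 s antagonist window.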
# TRPML1 blocker: human mucolipin-1 channel inhibition; TRPML1-inducible cells, Ca2+ dye fluorescence, FDSS; hits give low values; inhibition of EC80 agonist-evoked calcium signal; actives 0.02% (n = 390,000); activity change, negative = inhibition, % (test concentration not listed); in the data active means activity change below about -50%; inconclusive means about -30% to -50%; inactive means above about -30%;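 note: stimulus is agonist 54-4 at its EC80 concentration; % is set by controls: 0 for no effect and ±100 for the full control effect; compound concentration not given in the record; the text of the record puts the active cut at -80%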
#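 TRPML1-DL cells, Tet-induced overnight (~16 h, 37 °C) at 1,500 cells/well, were loaded with Ca8 no-wash dye plus quencher for 45-90 min at room temperature. Compounds were pinned during FDSS kinetic reading; agonist 54-4 at EC80 (4 uM final) then added.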
# D2 ag: agonists of human D2 dopamine receptor (beta-arrestin); P14416; DiscoveRx PathHunter D2 beta-arrestin, luminescence, 90 min; 100% = 57 uM dopamine signal; activation, % (test concentration not listed); actives 0.084% (n = 360,000); AID 624465; in the data active = activation above about 40%; inconclusive = about 15% to 40%; inactive = below about 15%; note: compound concentration not given in the record; the text of the record calls up to 30% inactive
#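 Agonist mode: compounds alone added to overnight-plated D2 PathHunter cells for 90 min at 37 C, with 57 uM final dopamine (EC100) defining full response. Beta-arrestin recruitment detected by chemiluminescent reagent, read after 1 h at ambient temperature.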
# PINK1 expr mod: changes PINK1 expression; PINK1 immunofluorescence, high-content cytometry, 24 h; Potency, µM (titrated, usually from 76.6 µM), for inactives: top-dose activation (PINK1 increase), most hits filed as activators; actives 0.2% (n = 410,000); AID 624263; active = well fitted activation curve with a large enough effect; inconclusive = small, poorly fitted or top-dose-only effect; inactive = flat fitted curve, though single readings scatter; cell line not stated here;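 note: potency is the fitted concentration of half-maximal effect; % of control where 0% means no effect; nearly all actives have a fitted effect of over 65% in size; a mitochondrial uncoupler was the plate control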
#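 Fluorescence from anti-PINK1 antibody, together with nuclear and cell stains, was scanned on a laser-scanning cytometer. Before staining, stable-line cells were incubated 24 hours with compounds at 5 concentrations; primary antibody 12 h at 10 degrees C.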
# Six1-Eya2 inh: blocks human Six1 binding to Eya2; Q15475+O00167; AlphaScreen GST-Six1/His-Eya2 binding, biochemical; hits give low values; control for the full effect not named in the record; activity change, % (concentration not given with the values); AID 651725; actives 0.56% (n = 360,000); in the data active = activity change below about -65%; inconclusive = about -30% to -65%; inactive = above about -30%; note: % is set by controls: 0 for no effect and ±100 for the full control effect
# Target sequence (O00167 whole entry, looked up): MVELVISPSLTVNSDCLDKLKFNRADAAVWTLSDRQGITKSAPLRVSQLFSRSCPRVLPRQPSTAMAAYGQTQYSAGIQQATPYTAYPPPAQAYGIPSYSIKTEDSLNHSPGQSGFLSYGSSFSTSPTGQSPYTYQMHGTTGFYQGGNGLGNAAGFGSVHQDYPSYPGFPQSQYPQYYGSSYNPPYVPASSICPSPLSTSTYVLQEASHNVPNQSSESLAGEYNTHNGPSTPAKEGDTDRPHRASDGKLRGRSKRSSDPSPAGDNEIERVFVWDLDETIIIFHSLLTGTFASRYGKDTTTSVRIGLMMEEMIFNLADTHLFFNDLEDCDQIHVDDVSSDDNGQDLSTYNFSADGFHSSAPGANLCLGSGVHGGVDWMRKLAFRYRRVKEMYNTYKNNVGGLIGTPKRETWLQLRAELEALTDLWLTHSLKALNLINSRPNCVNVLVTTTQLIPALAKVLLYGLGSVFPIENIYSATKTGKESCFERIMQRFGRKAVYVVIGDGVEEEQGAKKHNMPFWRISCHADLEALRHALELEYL
# Target sequence (Q15475 whole entry, looked up): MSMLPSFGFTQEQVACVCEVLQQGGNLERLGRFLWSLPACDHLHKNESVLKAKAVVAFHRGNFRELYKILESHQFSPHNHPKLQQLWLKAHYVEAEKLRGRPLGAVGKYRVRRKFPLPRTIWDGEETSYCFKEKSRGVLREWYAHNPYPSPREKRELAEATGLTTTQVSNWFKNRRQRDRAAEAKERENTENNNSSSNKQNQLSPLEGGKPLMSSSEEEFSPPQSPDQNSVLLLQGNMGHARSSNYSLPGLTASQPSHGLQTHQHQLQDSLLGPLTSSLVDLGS
#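 AlphaScreen luminescence read after one hour at 37 °C in darkness. Pin-transferred compounds met GST-Six1 and His-Eya2 protein (5X stock 250 nM/500 nM) plus glutathione donor and Ni-chelate acceptor beads (5X, 50 ug/mL).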
# CtBP-E1A inh: blocks the CtBP interaction with E1A. actives 0.49% (n = 340,000). AlphaScreen GST-E1A/His-CtBP binding, 1536-well; hits give low values; control for the full effect not named in the record. activity change, % (concentration not given with the values). AID 651724; in the data active means activity change below about -65%; inconclusive means about -30% to -65%; inactive means above about -30%; note: % is set by controls: 0 for no effect and ±100 for the full control effect
#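 Protein mix (5X: 125 nM each GST-E1A, His-CtBP) was incubated with pinned compound 2 h at 37 deg C in dark, in 50 mM Tris pH 8.0 buffer with 300 mM NaCl. Glutathione donor and nickel acceptor beads followed; AlphaScreen signal read after 1 h.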
# The depositor's hits bear a star; ? = inconclusive; nt = not tested or not shown; [ ] = another dose, or the depositor's remark. The order is random. Share with any hit: about 1%.
SMILES,TRPML1 ag,TRPML1 blocker,D2 ag,PINK1 expr mod,Six1-Eya2 inh,CtBP-E1A inh
O=C(CSc1ccccc1F)NC(=O)NCc1ccco1,0.8,24,6.0,0.8%,-13,-17
COc1ccc(CNC(=O)COC(=O)c2cc(-c3cccs3)nc3ccccc23)cc1OC,0.2,-5,-2.4,3.3%,-9,-3
Cc1cc(C)cc(NC(=O)C2CCN(S(=O)(=O)c3ccc4[nH]c(=O)ccc4c3)CC2)c1,-0.2,23,2.5,11%,-6,-2
CS(=O)(=O)c1ccccc1-c1nnc(-c2ccc(Cl)cc2)o1,-0.1,26,-0.3,0.2%,2,4
CC(C)NC(=O)Cn1cc(C(=O)C(=O)N2CCOCC2)c2ccccc21,0.0,5,-2.9,1.0%,1,3
COc1ccc(NC(=O)/C(C#N)=C\c2cc(C)n(-c3ccc4c(c3)OCO4)c2C)cc1,0.5,-4,-0.8,4.6%,-9,-5
O=c1[nH]nc(N/N=C/c2ccc(Cl)cc2Cl)c(=O)[nH]1,nt,nt,-1.1,-0.3%,-4,-2
COC(=O)c1cc(Cl)c(NC(=O)c2ccc(C(C)(C)C)cc2)cc1OC,1.8,27,-1.0,?,-6,6
CCN(CC(=O)Nc1c(F)cccc1F)C(=O)CCC(=O)c1ccc(C)cc1,-0.7,0,-2.9,2.6%,2,5
CCC1(c2ccccc2)NC(=O)N(Cc2ccc(C(=O)OC)cc2)C1=O (centres undefined),-0.7,1,-0.4,1.2%,4,4
O=C(c1ccco1)N1CCN(c2nc(-c3ccc(F)cc3)cs2)CC1,0.9,7,-0.1,0.1%,-12,-18
Cc1cc(C)c(C)c(S(=O)(=O)NCc2cccnc2)c1C,0.6,4,-1.6,8.4%[38.3 µM],3,2
Cc1noc(C)c1S(=O)(=O)N(CC(=O)Nc1ccc2c(c1)OCO2)c1ccc(C(C)C)cc1,0.9,5,-3.9,16%,-10,1
CC1=CC(C)(C)N(C(=O)CSc2nnc(N)s2)c2c(C)cc(C)cc21,0.4,3,-3.7,0.7%,-13,-2
COCCN(C(=S)Nc1cccc(OC)c1)C(C)c1cccs1 (centres undefined),-0.9,-4,1.8,-2.1%,4,-1
COc1ccccc1Nc1nnc(SCC(=O)c2c(N)n(C3CC3)c(=O)[nH]c2=O)s1,1.0,-13,3.8,?,-11,-5
Cc1c(N=Cc2nc3ccccc3n2C)c(=O)n(-c2ccccc2)n1C,1.0,-17,-2.9,1.4%,-1,-9
CN1C(=O)NC(c2cccc(O)c2)C(C(=O)c2cccs2)C1(O)C(F)(F)F (centres undefined),0.0,15,0.5,0.3%[38.3 µM],1,8
COc1cc(C(O)c2nc(-c3ccncc3)cs2)ccc1F (centres undefined),-0.5,nt,5.7,0.8%,1,-22
CC(CC(=O)NCc1cccnc1)c1ccccc1 (centres undefined),-0.2,8,-3.3,-0.6%,0,7
CCC(C)NC(=O)Cn1nc(Cc2ccncc2)c2ccccc2c1=O (centres undefined),0.7,14,-0.4,-0.2%,0,8
COc1cccc(CC(NC(C)=O)C(=O)NC2CCN(c3c4c(nc5ncnn35)CCC4)CC2)c1 (centres undefined),-0.3,-2,2.5,1.6%,1,4
COc1ccc(CNC(=O)CN(C(=O)CCC(=O)Nc2ccccn2)c2ccc3c(c2)OCO3)cc1,-1.4,5,-7.4,0.3%,5,0
CCC(C(=O)Nc1ccc(OC)c(Cl)c1)c1ccccc1 (centres undefined),-1.0,9,-4.6,3.9%,4,12
O=C(c1ccco1)N1CCN(C(=O)C2CCN(S(=O)(=O)c3cnc[nH]3)CC2)CC1,0.3,9,-1.9,-0.3%,9,1

# (listing goes on)
SMILES,TRPML1 ag,TRPML1 blocker,D2 ag,PINK1 expr mod,Six1-Eya2 inh,CtBP-E1A inh
CCC(Cn1nnc2ccccc2c1=O)NC(=O)Nc1cccc(C)c1C (centres undefined),1.2,-7,nt,-0.5%,nt,nt
Cc1ccc(C(=O)Nc2sc(C)c(-c3ccccc3)c2C(N)=O)cc1[N+](=O)[O-],0.9,-2,-1.8,7.8%,0,7
CCOc1ccc(CC2CC(=O)NC2=O)cc1 (centres undefined),-0.6,32,-1.0,-1.9%,4,12
Cn1c(=O)oc2cc(S(=O)(=O)N3CCCC(C(=O)N4CCN(c5ccc(F)cc5)CC4)C3)ccc21 (centres undefined),-0.2,47,nt,0.7%,nt,nt
CCC1CCCCN1C(=O)c1c[nH]c2ccc(S(=O)(=O)Nc3cccc(OC)c3)cc2c1=O (centres undefined),1.6,-18,nt,-1.0%,nt,nt
O=C(C1CCN(S(=O)(=O)c2cccc3cccnc23)CC1)N1CCCCC1,-0.6,11,-2.8,-1.3%,2,-3
O=C(NCCCN1CCCC1=O)C(=O)NCC1OCCN1S(=O)(=O)c1ccc(Cl)cc1 (centres undefined),0.6,12,-2.1,-2.1%,2,-11
CCOc1ccc(CNC(=O)C2CCCN(c3nn4cc(-c5ccc(OC)cc5)nc4s3)C2)cc1 (centres undefined),1.9,-22,nt,-0.2%,nt,nt
CC(C)N1CCN(Cc2cccs2)CC1CCO (centres undefined),0.3,-11,0.1,0.0%,5,nt
O=C(Nc1ccc(Cl)cc1)Nc1ccccc1C(=O)O,0.4,1,3.4,-1.4%,-3,-4
CN(C)CCNC(=O)C(=O)NCC1OCCN1S(=O)(=O)c1cc(F)ccc1F (centres undefined),-0.1,2,-2.4,-0.5%,-1,6
CCOC(=O)N1CCC(NC(=O)Cn2ncc3c2-c2cc(C)ccc2OC3)CC1,-0.3,18,-3.0,-0.3%,1,3
Cc1ccnc(NC(=O)COc2ccc(Cl)cc2)n1,-0.8,6,-2.4,0.9%,4,3
COc1ccc(NC(=O)CCc2c(C)nc3c(-c4ccccc4)c(C)nn3c2C)cc1Cl,-1.3,-5,nt,1.4%,nt,nt
Nc1nc2c(Cl)ccc(Cl)c2s1,-1.1,6,-3.8,0.3%,6,1
CCOC(=O)c1ccc(S(=O)(=O)NC2CCC(C)CC2)cc1 (centres undefined),0.3,14,-3.7,4.0%,1,18
CC(C)OC(=O)CCC(=O)Nc1nc2ccccc2s1,1.8,8,-0.8,-1.3%[38.3 µM],5,-12
Cc1ccc(C(=O)CCC(=O)Nc2ccc(C)cn2)cc1,-0.3,-1,-2.8,1.5%,3,nt
COc1ccc(Cc2nnc(NC(=O)c3cccs3)s2)cc1OC,0.1,-8,0.7,6.0%,1,6
CSc1cccc(CN2CCCC(CO)(Cc3cccc(Cl)c3)C2)c1 (centres undefined),0.0,4,-3.4,6.1%,3,-2
N#Cc1cc(-c2ccccc2)nnc1Sc1ccc(F)cc1,0.1,-5,-0.7,14%,9,9
O=C(c1cc2cc3ccc(Cl)cc3nc2o1)N1CCCCCC1,-0.7,3,3.4,-0.6%,1,4
CN(c1ccccc1)C1CCCCC1NS(=O)(=O)c1ccc(Cl)cc1 (centres undefined),0.1,-5,4.5,?,-3,nt
Cc1nn(-c2ccccc2)nc1C(=O)NN,0.4,14,-6.6,-0.2%,8,5
COCCNC(=O)C(c1ccco1)N(Cc1ccc(OC)cc1)C(=O)Cn1nnc2ccccc21 (centres undefined),0.0,-4,-5.9,-0.1%,-6,10

# In a second layout: entries from further up.
# Results follow in this order: TRPML1 ag | TRPML1 blocker | D2 ag | PINK1 expr mod | Six1-Eya2 inh | CtBP-E1A inh
- CCOc1ccc(CNC(=O)C2CCCN(c3nn4cc(-c5ccc(OC)cc5)nc4s3)C2)cc1 (centres undefined)
 : 1.9 | -22 | nt | -0.2% | nt | nt
- O=C(Nc1ccc(Cl)cc1)Nc1ccccc1C(=O)O
 : 0.4 | 1 | 3.4 | -1.4% | -3 | -4

# Some of these compounds in order of formula weight, descending:
SMILES,TRPML1 ag,TRPML1 blocker,D2 ag,PINK1 expr mod,Six1-Eya2 inh,CtBP-E1A inh
COc1ccc(CNC(=O)COC(=O)c2cc(-c3cccs3)nc3ccccc23)cc1OC,0.2,-5,-2.4,3.3%,-9,-3
COc1ccc(NC(=O)CCc2c(C)nc3c(-c4ccccc4)c(C)nn3c2C)cc1Cl,-1.3,-5,nt,1.4%,nt,nt
COc1ccccc1Nc1nnc(SCC(=O)c2c(N)n(C3CC3)c(=O)[nH]c2=O)s1,1.0,-13,3.8,?,-11,-5
CSc1cccc(CN2CCCC(CO)(Cc3cccc(Cl)c3)C2)c1 (centres undefined),0.0,4,-3.4,6.1%,3,-2
CS(=O)(=O)c1ccccc1-c1nnc(-c2ccc(Cl)cc2)o1,-0.1,26,-0.3,0.2%,2,4
Cc1ccc(C(=O)CCC(=O)Nc2ccc(C)cn2)cc1,-0.3,-1,-2.8,1.5%,3,nt

# The list continues:
SMILES,TRPML1 ag,TRPML1 blocker,D2 ag,PINK1 expr mod,Six1-Eya2 inh,CtBP-E1A inh
CCNc1nc(=S)nc(NC(C)C)[nH]1,-0.1,8,-2.7,0.5%,-8,-1
CC(C)CC#Cc1ccc2c(c1)O[C@H](CN(C)C(=O)Cc1ccncc1)[C@H](C)CN([C@H](C)CO)S2(=O)=O,0.9,-17,-2.0,-0.8%,13,-1
COc1cc2c(C(=O)N3CCN(C)CC3)c(C)n(-c3ccccc3)c2cc1Br,-0.6,0,-1.6,nt,-1,3
CCCOC(=O)CSc1nc(N2CCOCC2)c2c(c1C#N)CC(C)(C)OC2,2.9,16,-2.3,4.9%,7,3
COc1ccc(CCNC(=O)CSc2nc3ccsc3c(=O)n2CC2CCC(C(=O)O)CC2)cc1OC (centres undefined),-0.5,5,-2.2,-1.0%,2,1
NC(=O)c1ccc(OCC(F)(F)F)nc1,-0.6,-12,-4.7,0.3%,5,nt
COc1ccc(-c2nc(NC(=O)CSCCO)sc2C)cc1,-0.7,31,-5.9,3.7%,-1,5
O=C(Nc1ccccc1)Nc1snnc1C(=O)Nc1cccc(O)c1,-0.3,9,-21,0.2%,2,15
Cc1ccc(C(O)c2ncc(-c3ccc(Cl)cc3)[nH]2)cc1 (centres undefined),0.5,50,-1.9,4.0%,-14,-9
O=C1NC[C@H](CCCCN2C[C@H](Cc3ccc(O)cc3)N(Cc3ccccc3)C(=O)C2=O)N(CCc2ccccc2)C1=O,-1.0,nt,nt,-0.4%,-7,-1
Cc1ccc(NC(=O)NCC(c2cccnc2)N2CCOCC2)cc1 (centres undefined),0.8,2,-0.6,-2.0%,1,3
Cc1nn(-c2ccc3ccccc3c2)c(=O)c2ccccc12,-0.1,9,-0.3,0.6%,15,nt
CC12CCC3c4ccc(O)cc4CCC3C1CC(O)C2O (centres undefined),-0.8,-3,0.7,-0.6%,0,-3
Clc1cccc(Cl)c1CSc1cc2c(nn1)-c1ccccc1CC2,1.1,-10,0.3,2.8%,7,8
CC(C)CNC(=O)NC(=O)COc1ccc(C=O)cc1,-0.6,-17,-0.7,0.6%,1,4
CC(C)c1onc(C(=O)N2CCN(Cc3ccccc3)CC2)c1[N+](=O)[O-],0.5,-5,9.7,3.6%,1,-2
O=C(NCCCn1ccnc1)C1CCN(S(=O)(=O)c2ccc(F)cc2)CC1,-0.4,3,-3.8,0.9%,9,1
CCC(=O)N1CCc2cc(S(=O)(=O)NCCC(=O)N3CCN(c4ccccc4)CC3)ccc21,-0.9,1,7.8,1.1%,5,1
CCn1c(SC/C=C/c2ccccc2)nnc1-c1cccs1,0.7,20,-2.2,-0.2%[38.3 µM],-1,1
